AF4-AF9 inh: MLL-AF4/AF9 protein interaction inhibition | P42568 | AlphaScreen, biotin-AF4 peptide binding to FLAG-AF9 | inhibition, % at 10 µM | hit rate 0.47% among 350,000;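 active = every replicate reaching a set inhibition limit, whatever the replicate mean, cut at about 25% in these data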;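 note: 0% = plate neutral control median and 100% = total signal loss; the record names both 10 and 1 µM as test concentration; the first replicate is given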
Target sequence (P42568 whole entry, looked up): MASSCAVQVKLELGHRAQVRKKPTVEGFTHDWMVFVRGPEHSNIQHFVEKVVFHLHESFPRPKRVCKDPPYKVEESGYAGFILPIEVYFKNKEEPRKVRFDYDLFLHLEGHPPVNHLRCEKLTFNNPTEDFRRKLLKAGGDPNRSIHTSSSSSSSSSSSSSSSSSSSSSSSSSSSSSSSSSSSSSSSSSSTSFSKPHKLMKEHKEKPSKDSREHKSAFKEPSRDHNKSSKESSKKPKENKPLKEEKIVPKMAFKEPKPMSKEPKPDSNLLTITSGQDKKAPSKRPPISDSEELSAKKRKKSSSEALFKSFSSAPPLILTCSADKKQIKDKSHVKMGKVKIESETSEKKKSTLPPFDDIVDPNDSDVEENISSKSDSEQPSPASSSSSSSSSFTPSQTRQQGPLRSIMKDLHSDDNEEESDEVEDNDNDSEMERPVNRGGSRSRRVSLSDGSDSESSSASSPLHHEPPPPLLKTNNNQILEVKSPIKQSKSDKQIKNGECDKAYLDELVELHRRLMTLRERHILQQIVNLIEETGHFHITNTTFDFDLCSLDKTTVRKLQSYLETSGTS
Beta cell apopt: blocks beta cell apoptosis | protection from apoptosis, % (concentration not given with the values) | AID 435005 | hit rate 0.8% among 300,000 | INS-1E cytokine-induced death, ATP luminescence, 48 h; percent of positive-control rescue, neutral wells zero;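 active = all replicates at 75% or more, or half of them and the mean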;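 note: 0% = cytokine-treated negative control wells and 100% = positive control rescue; higher means more ATP so stronger rescue from cytokine killing; wells of about 40 µL received 100 nL stock; the first replicate is given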
ALR H2O2 inh: blocks human ALR sulfhydryl oxidase activity; hit rate 3.8% among 290,000; purified ALR, DTT oxidation, H2O2 HRP-luminol luminescence; inhibition, % (concentration not given with the values); AID 485317; P55789;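 active = mean and each replicate at 75% or more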;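 note: stock transfer was 7.5 nL into about 7.5 µL; 0% = neutral wells and 100% = wells with inactivated enzyme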
Target sequence (P55789 whole entry, looked up): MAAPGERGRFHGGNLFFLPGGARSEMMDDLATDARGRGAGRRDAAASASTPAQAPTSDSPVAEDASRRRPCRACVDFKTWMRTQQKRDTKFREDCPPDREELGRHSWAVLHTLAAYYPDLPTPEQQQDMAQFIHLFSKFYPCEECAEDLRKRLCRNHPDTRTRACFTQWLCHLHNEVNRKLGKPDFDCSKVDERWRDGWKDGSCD
FGF22 binding: binders of recombinant human FGF22 by thermal shift; AID 651658; SYPRO orange fluorescence; percent of sucrose octasulfate shift, DMSO zero; calls only at 9.99 µM; Q9HCT0; hit rate 1.5% among 340,000;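 active = melting point raised past a set limit in the mean and every replicate; three in four hits are not shown here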
Target sequence (Q9HCT0 whole entry, looked up): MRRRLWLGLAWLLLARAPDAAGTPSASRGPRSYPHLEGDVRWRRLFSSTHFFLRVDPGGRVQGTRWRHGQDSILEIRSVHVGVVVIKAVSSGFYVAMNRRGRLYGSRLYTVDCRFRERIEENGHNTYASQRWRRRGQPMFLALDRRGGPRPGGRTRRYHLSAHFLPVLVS
rRNA inh HTS: selective bacterial rRNA inhibition in E. coli; GFP signal change (wild-type ribosome), % (concentration not given with the values); AID 720706; E. coli WT GFP vs humanized-ribosome RFP mutants, fluorescence, 24 h; hits give low values; DMSO median 0, no signal -100; hit rate 1.6% among 350,000;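 active = significant combined selectivity score with lowered wild-type GFP, culture density cut under 30%, mutant RFP and density less affected; inactive = any of these conditions unmet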; note: one replicate is shown; some compounds called inactive have numbers as strong as hits
rRNA inh HTS OD600: also measured in rRNA inh HTS; calls as there; OD600 change, %; measured here: OD600 growth;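 optical density of the mix in the first replicate; 0 = DMSO median and -100 = no signal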
rRNA inh HTS RFP: recorded beside rRNA inh HTS, whose call it bears; RFP signal change, %; measured here: RFP humanized mutant strains;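 first replicate; 0 = DMSO median and -100 = no signal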
* marks the source's active call; other numbers are inactive results; i = inactive; / = not tested or not shown. Some of the compounds tested; rates above refer to the full screens.

SMILES | AF4-AF9 inh | Beta cell apopt | ALR H2O2 inh | FGF22 binding | rRNA inh HTS | others
C[C@@H]1CCCCO[C@@H](CN(C)C(=O)c2ccccc2)[C@@H](C)CN([C@@H](C)CO)C(=O)c2cc(NS(C)(=O)=O)ccc2O1 | 2.0 | / | / | / | -0.1 | rRNA inh HTS OD600=3.6;rRNA inh HTS RFP=-0.8
CCC(=O)Nc1ccc2c(c1)OC[C@H](C)N(CC1CC1)C[C@@H](C)[C@H](OC)CN(C)C2=O | -5.1 | / | / | / | -1.3 | rRNA inh HTS OD600=1.5;rRNA inh HTS RFP=-3.9
CS(=O)(=O)N1[C@H](C#N)[C@H](c2ccccc2-c2ccccc2F)[C@@H]1CO | -0.9 | / | / | / | -4.7 | rRNA inh HTS OD600=-4.8;rRNA inh HTS RFP=0.5
C[C@H]1CCCCO[C@H](CN(C)C(=O)Nc2ccccc2)[C@@H](C)CN([C@@H](C)CO)C(=O)c2cc(NC(=O)c3ccncc3)ccc2O1 | 0.9 | / | / | / | -0.8 | rRNA inh HTS OD600=-2.4;rRNA inh HTS RFP=-0.4
Cc1nc(N[C@@H](Cc2c[nH]c3ccccc23)C(=O)O)c2oc3ccccc3c2n1 | 0.3 | -0.8 | -18.1 | / | /
CSCCC(NC(=O)OC(C)(C)C)C(=O)Oc1ccc2c(=O)c(-c3ccc4c(c3)OCCO4)coc2c1 (configuration not stated) | -6.8 | 6.0 | 6.5 | / | /
COc1ccc2oc(=O)c(-c3nc(C)cs3)cc2c1 | -5.1 | 12.2 | -8.2 | / | /
COc1ccc(C(=O)O)cc1S(=O)(=O)NC1CCN(Cc2ccccc2)CC1 | 5.6 | -4.1 | -0.8 | / | /
CCN(CC)CCN1C(=O)C(=O)/C(=C(/O)c2c(C)[nH]c(C(=O)OC)c2C)C1c1cccnc1 (configuration not stated) | -2.3 | -5.1 | -5.9 | / | /
CSc1cccc(NC(=O)COc2ccccc2)c1 | / | -1.0 | -12.7 | / | -11.1 | rRNA inh HTS OD600=-4.6;rRNA inh HTS RFP=-5.8
CCc1nnc(NC(=O)C2CCN(S(=O)(=O)Cc3ccccc3)CC2)s1 | / | 1.5 | 5.7 | / | 3.8 | rRNA inh HTS OD600=4.2;rRNA inh HTS RFP=4.5
Cc1ccc(S(=O)(=O)Nc2ccc3c(c2)C(=O)N([C@H](C)CO)C[C@H](C)[C@@H](CN(C)Cc2ccc(-c4ccccc4)cc2)O3)cc1 | / | 2.0 | -0.6 | / | 0.9 | rRNA inh HTS OD600=-2.4;rRNA inh HTS RFP=4.0
CCC(CO)Oc1cc(NCc2cccc(Cl)c2)c2ncn(C(C)C)c2c1 (configuration not stated) | / | 25.7 | 7.6 | / | -22.0* | rRNA inh HTS OD600=-9.2*;rRNA inh HTS RFP=4.2*
COc1ccc(C=NNc2ccc(S(=O)(=O)Nc3ccccc3C(=O)O)cc2[N+](=O)[O-])c(OC)c1 | / | -3.7 | 43.4 | / | -8.7 | rRNA inh HTS OD600=1.5;rRNA inh HTS RFP=-0.3
CN(C)Cc1nc2ccccc2c(=O)n1Cc1nc(C(C)(C)C)cs1 | / | -2.2 | -16.1 | / | -17.6 | rRNA inh HTS OD600=-8.5;rRNA inh HTS RFP=-7.0
CS(=O)(=O)c1ccc(C(=O)OCC(=O)Nc2cccnc2Cl)cc1[N+](=O)[O-] | / | -26.8 | 66.0 | / | 2.8 | rRNA inh HTS OD600=7.4;rRNA inh HTS RFP=-1.1
Cc1ccc(S(=O)(=O)NC(CC(C)C)C(=O)NCC(c2ccco2)N2CCCCC2)cc1 (configuration not stated) | / | -2.8 | -5.8 | / | 6.0 | rRNA inh HTS OD600=19.1;rRNA inh HTS RFP=0.7
CC(C)(C)NCC(O)COc1cccc2c1CCC(=O)N2 (configuration not stated) | -1.1 | -5.0 | / | i | /
COc1cc([C@H]2c3c(cc(OC)c(O)c3OC)C[C@@H](CO)[C@@H]2CO[C@@H]2O[C@H](CO)[C@@H](O)[C@H](O)[C@H]2O)cc(OC)c1O | -2.8 | -9.8 | / | i | /
CSc1ccccc1C(=O)N1CCN(S(=O)(=O)c2sc(C(=O)O)c(C)c2C(=O)O)CC1 | -5.8 | -0.3 | / | i | /
CNc1snc(C)c1C(=O)OC(C)C(=O)Nc1cccc(OC)c1 (configuration not stated) | -0.9 | 2.5 | / | i | /
NS(=O)(=O)c1cc2c(cc1Cl)NC(C1CC3C=CC1C3)NS2(=O)=O (configuration not stated) | 1.8 | 1.6 | / | i | /
Cc1cc(C)cc(Nc2nc3c(S(=O)(=O)c4ccccc4)nnn3c3ccccc23)c1 | -0.7 | -1.6 | / | i | /
CN1CCc2cc(O)c(O)cc2C(c2ccccc2)C1 (configuration not stated) | 5.9 | 1.2 | / | i | /
O=C(c1cccc(S(=O)(=O)NCc2ccccc2)c1)N1CCN(c2ccccc2)CC1 | 4.0 | 0.0 | / | i | /
O=C(Nc1ccc(Cl)cc1)C1CCCCN1S(=O)(=O)c1ccccc1 (configuration not stated) | 0.6 | -5.6 | / | i | /
COCCNC(=S)Nc1ccc(N2CCOCC2)c(S(=O)(=O)Nc2ccccc2OC)c1 | 5.4 | 19.3 | / | i | /
Cc1c(C(=O)N2CCN(S(=O)(=O)c3ccccc3F)CC2)oc2c(Cl)cccc12 | -1.3 | 2.1 | / | i | /
CCOC(=O)C1=C(CC)Nc2ccccc2N=C1NC(=O)c1cc(C)on1 | -1.5 | -0.3 | / | i | /
CC(=O)N1CCN(S(=O)(=O)c2ccc3c(c2)OCCO3)CC1 | -2.1 | -5.9 | / | i | /
O=C(Nc1cc(S(=O)(=O)N2CCOCC2)ccc1N1CCCCC1)c1ccccc1Br | -1.2 | 0.3 | / | i | /
O=C(CCC1CCCCC1)NC1CCCCC1 | -2.5 | -6.9 | / | i | /
O=C(NCC(c1ccco1)N1CCCC1)c1cccc(S(=O)(=O)Nc2ccc(F)cc2)c1 (configuration not stated) | 1.4 | 3.6 | / | i | /
COc1cc(C(=O)NCC(=O)N2CCN(S(=O)(=O)c3ccccc3C(F)(F)F)CC2)cc(OC)c1OC | -1.2 | -0.5 | / | i | /
COc1ccc(CCC(=O)Nc2ccc(OC)c(S(=O)(=O)N3CCCCC3)c2)cc1OC | 3.6 | -5.4 | / | i | /
COc1ccc(S(=O)(=O)N2CCN(C(=O)CCSc3ccccc3)CC2)cc1 | -0.6 | 0.5 | / | i | /
O=C(COc1ccc(Cl)cc1Cl)OCC(=O)c1ccc[nH]1 | -3.6 | -3.6 | / | i | /
CN(Cc1ccc(C(F)(F)F)cc1)C(=O)C1CC(=O)N(Cc2ccco2)C1 (configuration not stated) | -0.8 | 0.8 | / | i | /
COc1ccc(S(=O)(=O)N2CCCCC2)cc1NC(=O)c1ccc(CS(C)(=O)=O)cc1 | -0.2 | 7.5 | / | i | /
COc1ccccc1NS(=O)(=O)c1cc(N)ccc1N1CCOCC1 | -3.0 | -1.4 | / | i | /
O=C(CC1SC(N2CCOCC2)=NC1=O)Nc1cccc(C(F)(F)F)c1 (configuration not stated) | -3.3 | -3.7 | / | i | /
Cc1ccc(Cl)cc1NC(=O)CN1C(=O)NC(C)(C2CC2)C1=O (configuration not stated) | -2.0 | -2.0 | / | i | /
CN(CC(=O)Nc1ccccc1Br)C(=O)c1sccc1-c1ccccc1 | -0.9 | 1.3 | / | i | /
COc1ccc(NS(=O)(=O)c2cccc(C(=O)N3CCN(C(=O)c4ccco4)CC3)c2)cc1 | -2.3 | 2.0 | / | i | /
COc1ccccc1C(=O)NCCC(=O)NCC(c1ccco1)N1CCCC1 (configuration not stated) | 0.2 | -4.6 | / | i | /
COc1ccccc1N1CCN(C(=O)c2cc3c(=O)n4ccccc4nc3s2)CC1 | 2.2 | 5.9 | / | i | /
CCOC(=O)c1c(C)[nH]c(C(=O)COC(=O)Cn2cc(C(F)(F)F)ccc2=O)c1C | -4.1 | -6.8 | / | i | /
O=C(OCCOc1ccccc1)c1cc(S(=O)(=O)N2CCOCC2)ccc1Cl | 0.8 | -1.0 | / | i | /
COc1ccccc1NS(=O)(=O)c1ccc(C(=O)NCc2ccncc2)cc1 | -1.8 | -0.8 | / | i | /
CCOc1ccccc1N1CCN(C(=O)c2cccc(S(=O)(=O)N3CCOCC3)c2)CC1 | -3.6 | -0.7 | / | i | /
CSc1ccc(Cl)c(C(=O)N2CCN(c3ncccn3)CC2)c1 | -2.8 | -4.0 | / | i | /
Cc1ccc(C(C)C)c(OCC(=O)N2CCN(c3ncccn3)CC2)c1 | -1.3 | 0.3 | / | i | /
COc1ccc(S(=O)(=O)N2CCCCC2)cc1NC(=O)CCCOc1ccccc1 | 0.6 | 1.0 | / | i | /
O=C(CO)C(O)C(O)C(O)CO (configuration not stated) | -4.0 | 2.8 | / | i | /
COCCN(C(=O)COC(=O)Cc1c(C)nc2ccccc2c1C)c1c(N)n(CC(C)C)c(=O)[nH]c1=O | -3.9 | 3.7 | / | i | /
Cc1ccc(S(=O)(=O)NCCC(=O)OCC(=O)Nc2cccc(Cl)c2)cc1 | -0.2 | -0.3 | / | i | /
COc1ccc(CC(=O)Nc2ccc(S(=O)(=O)N3CCCC3)cc2)c(OC)c1 | -3.9 | -4.6 | / | i | /
CC1CCCN(CC(=O)NC(=O)NC2CCCCC2)C1 (configuration not stated) | 0.2 | 0.8 | / | i | /
CCC1CCc2sc(C(=O)NNC(=S)NCC3CCCO3)cc2C1 (configuration not stated) | 3.4 | -9.8 | / | i | /
CCN(CC)c1ccc(/C=C(\C#N)C(=O)NCc2ccco2)cc1 | 4.1 | 0.9 | / | i | /
Additional results:
SMILES | AF4-AF9 inh | Beta cell apopt | ALR H2O2 inh | FGF22 binding | rRNA inh HTS | others
CSc1ncccc1C(=O)OCC(=O)NC1CCCCC1 | -0.3 | -4.0 | / | i | /
COc1cc(/C=C/C(=O)OCC(=O)N2CCCc3ccccc32)ccc1O | -1.0 | -1.5 | / | i | /
CC1CC(C)CN(C(=O)COC(=O)c2c[nH]c3ccccc23)C1 (configuration not stated) | -2.1 | 0.0 | / | i | /
COc1ccc(C)cc1NC(=O)CCCN1C(=O)CN(C)C1=O | 1.9 | -0.7 | / | i | /
Cn1ccc(NC(=O)c2ccc(Cl)cc2)n1 | 0.4 | -3.1 | / | i | /

Ordered by molecular weight (high to low): some entries from above
SMILES | AF4-AF9 inh | Beta cell apopt | ALR H2O2 inh | FGF22 binding | rRNA inh HTS | others
COCCN(C(=O)COC(=O)Cc1c(C)nc2ccccc2c1C)c1c(N)n(CC(C)C)c(=O)[nH]c1=O | -3.9 | 3.7 | / | i | /
CCOc1ccccc1N1CCN(C(=O)c2cccc(S(=O)(=O)N3CCOCC3)c2)CC1 | -3.6 | -0.7 | / | i | /
Cc1ccc(S(=O)(=O)NCCC(=O)OCC(=O)Nc2cccc(Cl)c2)cc1 | -0.2 | -0.3 | / | i | /
COc1ccc(CC(=O)Nc2ccc(S(=O)(=O)N3CCCC3)cc2)c(OC)c1 | -3.9 | -4.6 | / | i | /
CCC1CCc2sc(C(=O)NNC(=S)NCC3CCCO3)cc2C1 (configuration not stated) | 3.4 | -9.8 | / | i | /
Cc1ccc(C(C)C)c(OCC(=O)N2CCN(c3ncccn3)CC2)c1 | -1.3 | 0.3 | / | i | /
CSc1ccc(Cl)c(C(=O)N2CCN(c3ncccn3)CC2)c1 | -2.8 | -4.0 | / | i | /
CCN(CC)c1ccc(/C=C(\C#N)C(=O)NCc2ccco2)cc1 | 4.1 | 0.9 | / | i | /
COc1ccc(C)cc1NC(=O)CCCN1C(=O)CN(C)C1=O | 1.9 | -0.7 | / | i | /
CC1CC(C)CN(C(=O)COC(=O)c2c[nH]c3ccccc23)C1 (configuration not stated) | -2.1 | 0.0 | / | i | /
CSc1ncccc1C(=O)OCC(=O)NC1CCCCC1 | -0.3 | -4.0 | / | i | /
CC1CCCN(CC(=O)NC(=O)NC2CCCCC2)C1 (configuration not stated) | 0.2 | 0.8 | / | i | /
Cn1ccc(NC(=O)c2ccc(Cl)cc2)n1 | 0.4 | -3.1 | / | i | /
